Lassa entry: Lassa virus entry inhibition; 4.1% of 18,000 active; Potency, µM (doses to about 49.2 µM), for the others: at the top dose activity change, negative = inhibition, actives largely listed as inhibitors; Lassa virus pseudotyped entry inhibition, cell-based qHTS; control for the full effect not named in the record; many of its hits are not listed in these tables; active = well fitted inhibition curve with a large enough effect; inconclusive = small, poorly fitted or top-dose-only effect; inactive = no such curve, though single readings can be large or run the other way; tested in HEK293 cells; note: luciferase read-out
MARV entry inh: blocks Marburg virus binding or cell entry; Marburg virus pseudotype entry/binding inhibition, cell-based; control for the full effect not named in the record; many of its hits are not listed in these tables; Potency, µM (series often up to 49.2 µM), inactives show top-dose activity change, negative = inhibition, actives largely listed as inhibitors; 6.5% of 18,000 active; AID 720532; active means well fitted inhibition curve with a large enough effect; inconclusive means small, poorly fitted or top-dose-only effect; inactive means no such curve, though single readings can be large or run the other way; tested in HEK293 cells; note: luciferase read-out
* marks the source's active call; other numbers are inactive results; ? = inconclusive; · = not tested or not shown; & = joins results of further samples; [ ] = another dose, or the depositor's remark. % is set by controls: 0 for no effect and ±100 for the full control effect; potency is the fitted concentration of half-maximal effect.

SMILES | Lassa entry | MARV entry inh
O=C(c1ccc(Cl)cc1Cl)n1nnc2ccccc21 | 13% | 31%[activator]
COc1ccccc1C1CN(Cc2cccnc2)Cc2ccccc2O1 (stereo not given) | -2% | ?
CC(CCC(=O)OC[C@H]1O[C@H](C#Cc2ccccc2)C=C[C@H]1Oc1ccc(C)cc1)=NO[C@H](C)c1cn([C@H](CO)Cc2ccccc2)nn1 | · | 2%[8.59 µM]
Cc1ccc([C@H]2C[C@H](O)[C@@H](n3cc(COC(=O)c4ccccc4)nn3)CN2CC2CCCCC2)cc1 | · | ?
COc1ccc(-c2coc3c(OC)c(OC)cc(O)c3c2=O)cc1 | -5% | 2%
COC(=O)C1=C(C)N(Cc2ccccc2)C(=NCC(C)C)NC1c1ccc(Br)cc1 (stereo not given) | -1%[8.59 µM] | 5%[8.59 µM]
COc1ccc2c(c1OC)C(Cc1ccccc1)N1CCc3cc4c(cc3C1=C2)OCO4 (stereo not given) | 25µM* | ?
CCCCCCCCCCCCCCCCCC(=O)OCC(O)CO (stereo not given) | 7% | 19%
COc1cc(C=NNc2ncnc3c2cnn3C(C)C)ccc1O | ? | ?
Clc1ccc(C(Cn2ccnc2)OCc2ccsc2Cl)c(Cl)c1 (stereo not given) | ? | 7%
O=C(O)CCCCCCNC1c2ccccc2CCc2ccccc21 | -12% | 6%
CN(C)CCCNc1nccc(-c2c(-c3ccc(F)cc3)nn3cc(C(F)(F)F)ccc23)n1 | ? | ?
O=C(Nc1ccc(Br)cc1)c1cc(Br)c(Br)s1 | ? | -21%
COc1ccc(-c2nc3cc(C)ccc3cc2CN(C(=O)c2ccc(C)s2)C2CC2)cc1OC | ? | ?
CC(CN(C)C)CN1c2ccccc2S(=O)(=O)c2ccccc21 (stereo not given) | -5% | ?
CCCCCc1cc(O)c2c(c1)OC(C)(C)[C@@H]1CCC(C(=O)O)=C[C@H]21 | -10%&-10% | -11%&12%
O=C(NCc1nnc2n1CCN(Cc1ccc(C(F)(F)F)cc1)CC2)c1cccc(F)c1 | -1% | -3%
CN(C)c1ccc(CN2CCOc3ccc(CN4CCC(O)(c5cccnc5)CC4)cc3C2)cc1 | -22% | ?
C[C@@H]1C[C@](C)(C(=O)c2ccco2)C=C1c1ccco1 | -1% | 7%
CCCCCC(=O)N1C[C@H](n2cc(C3CC3)nn2)[C@@H](O)C[C@H]1c1ccc(C)cc1 | 8% | 11%
CC#C[C@H](C)[C@@H](OCOC)[C@H](C[C@H](C)Cc1cc(Br)cc(OCc2ccccc2)c1OC)OC | -3%[8.59 µM] | -10%[8.59 µM]
COC(=O)C1=C(C)N(Cc2ccco2)C(=O)N[C@@H]1c1cccc(C(F)(F)F)c1 | -7% | 0%
Cc1cc(C)c(N(Cc2ccccc2)S(=O)(=O)c2ccc(OCCNC(=O)c3cc4ccccc4o3)cc2)c(C(=O)NO)c1 | 13µM* | 5µM*
CC(=O)Nc1ccc(C(=O)N2CCCC(c3nc(SCc4ccccn4)ncc3C)C2)cc1 (stereo not given) | 0% | -7%
CCOC(=O)[C@@]12C3[C@@H](CCN3C(=O)N[C@@H]1c1ccccc1)[C@@H]2C (stereo not given in full) | 2%[8.59 µM] | -11%[8.59 µM]

New compounds follow
SMILES | Lassa entry | MARV entry inh
CCn1cc(C(=O)O)c(=O)c2cnc(N3CCCC3)nc21 | -7%[17.8 µM] | -8%[17.8 µM]
CCOC(=O)C1CSCCS(=O)(=O)N1Cc1ccc(F)cc1 (stereo not given) | 8% | 9%
Cc1nc(NS(=O)(=O)c2ccc(N)cc2)nc(C)c1Br | -12% | -19%
CC(C)NCC(O)c1ccc2ccccc2c1 (stereo not given) | -18%&-1% | ?
CCCCC/C=C\C/C=C\CCCCCCCC(=O)NCCCC(=O)O | -15% | -13%
CC(=O)OCC1=C[C@H]2[C@@H]3C(C)(C)[C@]3(OC(C)=O)C[C@@H](C)[C@]2(O)[C@@H]2C=C(C)C(=O)[C@@]2(O)C1 | -7% | ?
CCC[C@H](NC(=O)[C@H](CC(C)C)N(C)C(=O)CNC(=O)[C@@H](NC(=O)[C@H](Cc1ccccc1)NC(=O)[C@H](CCCCN)NC(=O)[C@@H](N)CC(=O)O)C(C)C)C(N)=O | 9% | 18%
CCCCCCCCCCCC(=O)OC[C@@H](O)C1OC[C@H](O)[C@H]1O (stereo not given in full) | -10% | 11%
CC(C)(O)C#Cc1ccc(C(=O)NCCN2Cc3ccccc3OC(c3ccccc3F)C2)o1 (stereo not given) | -12% | -19%
COC(=O)C12CC3(CCC4C5C(C(OCc6ccccc6)C41)C52)OCCO3 (stereo not given) | -1%[8.59 µM] | ?
CON(C)C(=O)c1nnc2c3ccccc3n(S(=O)(=O)c3ccc(C)cc3)c2n1 | 21%[8.59 µM] | 16%[8.59 µM]
CCOC(=O)CCC(=O)O[C@H]1[C@H](O[C@@H]2[C@@H](C)[C@H](O[C@H]3C[C@@](C)(OC)[C@@H](O)[C@H](C)O3)[C@@H](C)C(=O)O[C@H](CC)[C@@](C)(O)[C@H](O)[C@@H](C)C(=O)[C@H](C)C[C@@]2(C)O)O[C@H](C)C[C@@H]1N(C)C | 1% | 8%
Cc1ccc(CN2CC(N3CCN(C4CCN(C)CC4)CC3)CS2(=O)=O)cc1 (stereo not given) | 14% | -14%
CC(CCN1CCCc2nc(C)c(C)cc21)=NO[C@H](C)c1cn([C@H](CO)Cc2ccccc2)nn1 | 1%[8.59 µM] | ?
OCC1CCCN(c2nc3cc4c(cc3cc2CNCc2cccs2)OCO4)C1 (stereo not given) | 0% | 13%
CS(=O)(=O)c1ccc([C@@H](O)[C@@H](COC(=O)CN)NC(=O)C(Cl)Cl)cc1 | -8% | -3%
NCCc1ccn[nH]1 | -17%[17.8 µM] | -3%[17.8 µM]
COc1ccc(-c2oc3ccccc3c(=O)c2O)cc1 | 36%[activator] | 26%
CCOC(=O)/C=C(C)/C=C/C=C(C)/C=C/c1c(C)cc(OC)c(C)c1C | -15% | -2%
CCOC(C)=O | 2% | 14%
Cc1cnc(C)c(-c2cc(F)cc3c2OC(CNC(=O)c2cc(Cl)ccc2F)C3)n1 (stereo not given) | 7% | -9%
CN(c1ccc([N+](=O)[O-])cc1)c1cc2c(c3c1ccn3C)C1CCC2C1 (stereo not given) | 13% | -12%
O=C(C1CCCCC1)N1C[C@H](O)[C@H](n2cc(C3CC3)nn2)C[C@@H]1c1ccccc1 | 2% | 22%
C[N+]1(C)C2CCC1CC(OC(=O)C(O)c1ccccc1)C2 (stereo not given) | -10% | 4%
OCC(Br)(Br)Br | 5% | 5%

Reprinted from the part before: two entries, then new ones.
SMILES | Lassa entry | MARV entry inh
C[N+]1(C)C2CCC1CC(OC(=O)C(O)c1ccccc1)C2 (stereo not given) | -10% | 4%
OCC(Br)(Br)Br | 5% | 5%
CC(CCN1CCc2nc(-c3ccccc3)c(-c3ccccc3)cc2C1)=NOC[C@@H](O)[C@H]1O[C@@H]2OC(C)(C)O[C@H]2[C@@H]1O | 17%[8.59 µM] | 26%[8.59 µM]
O=C(NCCCN1CCCCCC1)C(c1ccccc1)C1CCCCC1 (stereo not given) | ? | 10µM*
C/C=C1\NC(=O)[C@H]2CSSCC/C=C/[C@H](CC(=O)N[C@H](C(C)C)C(=O)N2)OC(=O)C(C(C)C)NC1=O (stereo not given in full) | 3.2µM* | 1.1µM*
CCC1(C2CCN(C(=O)c3ccccc3Cl)CC2)NC(=O)N(CCc2scnc2C)C1=O (stereo not given) | -3% | 10%
O=c1c(O)c(-c2ccc(O)cc2)oc2ccc(O)cc12 | ? | -2%
CN1CCN(C(=O)c2ccc(NC(=O)Nc3ccc(N(C)c4ccnc(Nc5ccc(CS(C)(=O)=O)cc5)n4)cc3)cc2)CC1 | · | ?
O=C(/C=C/c1ccccc1)OC1CC(O)C2(O)C=CO[C@@H](OC3OC(CO)C(O)C(O)C3O)C12 (stereo not given in full) | 0% | -8%
O[C@H]1C[C@H](c2ccccc2)N(Cc2cccs2)C[C@H]1n1cc(C2CC2)nn1 | 2% | ?
COc1cc(OC)c2c(c1)OC(=O)CC2c1ccccc1OC (stereo not given) | -5% | 14%
CN1CCN(C2Cc3ccccc3Sc3ccc(S)cc32)CC1 (stereo not given) | ? | 13µM*
CC(C)Oc1cc(-n2nc(C(C)(C)C)oc2=O)c(Cl)cc1Cl | ? | -28%
O=C(/C=C/c1ccc(O)c(O)c1)c1ccc(O)cc1O | -22% | -28%
CCCN1CCC[C@@H]2Cc3cn[nH]c3C[C@H]21 | 2% | -6%
COc1ccc2c(c1)C(=O)[C@H](OC(=O)Nc1cc(OC)c(OC)c(OC)c1)[C@@H](c1ccc(OC)c(Br)c1)O2 | -6% | ?
CNC(=O)O/N=C/C(C)(C)SC | 3% | -1%
Cc1ccc(C(=O)Nc2cccc(-c3nc(CNC(=O)c4cccc(N(C)C)c4)c(C)o3)c2)s1 | ? | -19%
COc1ccc(CCCn2ncc3c2nc(N)n2nc(-c4ccco4)nc32)cc1 | 6% | 14%
COc1ccc2c(c1)C13CCCC[C@@H]1C(C2)N(C)CC3 (stereo not given in full) | 0%[17.8 µM] | ?
CC(C)N(CCC(C(N)=O)(c1ccccc1)c1ccccn1)C(C)C (stereo not given) | 8% | -14%&-3%
Cc1cc(Cl)ccc1OCC(=O)NCC1Cc2cc(-c3cnccn3)ccc2O1 (stereo not given) | -10% | 4%
COCc1c(C(=O)N2CCN(C3CCCC3)CC2)cnn1-c1nccc(-c2cccs2)n1 | 3% | -5%
C[C@@]12CCC3c4ccc(OS(=O)(=O)O)cc4CCC3C1CCC2O (stereo not given in full) | 4% | 13%
CCOC(=O)C1(C(=O)OCC)Cc2ccc(C(C)=O)cc2C1 | · | -20%[8.59 µM]
Nc1nc(OCC2CCCCC2)c2[nH]cnc2n1 | -2% | 3%
COC(=O)C1=C(C)N(Cc2ccccc2)C(=S)NC1c1cccc(F)c1 (stereo not given) | 1%[8.59 µM] | 48%[8.59 µM]

Reprinted from the part before: 6 entries, followed by the next part.
SMILES | Lassa entry | MARV entry inh
Cc1cc(Cl)ccc1OCC(=O)NCC1Cc2cc(-c3cnccn3)ccc2O1 (stereo not given) | -10% | 4%
COCc1c(C(=O)N2CCN(C3CCCC3)CC2)cnn1-c1nccc(-c2cccs2)n1 | 3% | -5%
C[C@@]12CCC3c4ccc(OS(=O)(=O)O)cc4CCC3C1CCC2O (stereo not given in full) | 4% | 13%
CCOC(=O)C1(C(=O)OCC)Cc2ccc(C(C)=O)cc2C1 | · | -20%[8.59 µM]
Nc1nc(OCC2CCCCC2)c2[nH]cnc2n1 | -2% | 3%
COC(=O)C1=C(C)N(Cc2ccccc2)C(=S)NC1c1cccc(F)c1 (stereo not given) | 1%[8.59 µM] | 48%[8.59 µM]
N[C@@]1(C(=O)O)CN[C@@H](C(=O)O)C1 | -4% | 28µM*
COC(=O)CC=C[C@@H](C)[C@@H](C=NOC[C@H]1O[C@H](c2ccccc2)C=C[C@H]1Oc1ccc(OC)cc1)N[S+](=O)([O-])c1ccc(C)cc1 | · | 1%[8.59 µM]
Cc1ncc2c(c1CNC(=O)/C=C/c1cccs1)CCN(C(=O)C1CCCO1)C2 (stereo not given) | 1% | -6%
CCOC(=O)C1C(C(=O)OC)=C(c2ccc(F)cc2)c2ccccc2N1S(=O)(=O)C(F)(F)F (stereo not given) | -12% | -15%
COC(=O)[C@H](COC(C)(C)C)NC(=O)O[C@@H]1C(=O)c2cc(Br)ccc2O[C@H]1c1ccc2c(c1)OCO2 | 3% | ?
O=C(c1ccccc1)[C@@H]1O[C@@H]1c1ccccc1 | -19%[8.59 µM] | 41%[activator][8.59 µM]
COc1ccccc1N1CCNCC1 | 1%&-13% | -8%&-11%
CC1(OC(=O)c2cnc3ccccc3n2)C(=O)C=C2C=C(c3ccc(C#N)cc3)OC=C2C1=O (stereo not given) | ? | 8%
O=c1c(O)c(-c2cccc(O)c2)oc2ccccc12 | -13% | 49%[activator]
COc1ccc(-c2nc3cc(F)ccc3cc2CN(C(=O)c2ccc3c(c2)OCO3)C2CC2)cc1 | 0% | 1%
COC(=O)CC=C[C@@H](C)[C@@H](C=NO[C@H](C)c1cn([C@H](CO)Cc2ccccc2)nn1)NS(=O)(=O)c1ccc(C)cc1 | 36%[activator][8.59 µM] | 22%[8.59 µM]
C[C@H]1Cc2c(COc3ccccc3)nc3c(c2CO1)CN(C(=O)C1CCCCC1)CC3 | 2%[8.59 µM] | -12%[8.59 µM]
C=CCNP1(=O)O[C@H](C=C)C[C@H](C=C)O1 (stereo not given in full) | 1% | -14%
CCN1C(=O)NC(c2cccs2)C(C(=O)OC)=C1C (stereo not given) | -14%[8.59 µM] | 1%[8.59 µM]
COc1ccc(CN2C=C3C(=O)C(C)(OC(=O)C4CCCC4)C(=O)C=C3C=C2c2ccsc2)cc1 (stereo not given) | -22%[8.59 µM] | 10%[8.59 µM]
Cn1c(-c2ccc3c(c2)OCO3)cc(=O)c2ccccc21 | 1%[17.8 µM] | 8%[17.8 µM]
COc1ccc(OC)c(CN2CCOc3ccc(CN4CCC(O)(c5cccnc5)CC4)cc3C2)c1 | -14% | ?
O=C(NCc1nnc2n1CCN(Cc1cccc(Cl)c1)CC2)c1cccc(F)c1 | ? | ?
COc1ccc(C(=C2C(=O)Nc3ccccc32)c2ccc(OC)cc2)cc1 | ? | ?
CCC(=O)OCC(=O)[C@@]1(OC(=O)CC)[C@H](C)C[C@H]2[C@H]3[C@H]([C@@H](O)C[C@@]21C)[C@@]1(C)C=CC(=O)C=C1C[C@H]3Cl | -4%[17.8 µM] | -15%[17.8 µM]
